VDR inh: inhibitors of human vitamin D receptor | P11473 | VDR-SRC2-3 peptide fluorescence polarization, 2 h | Potency, µM, without a hit: max response, negative = inhibition, actives largely listed as inhibitors | actives 0.93% (n = 400,000); active means well fitted inhibition curve with a large enough effect; inconclusive means small, poorly fitted or top-dose-only effect, or another doubt; inactive means no such curve, though single readings can be large or run the other way; further: series mostly up to about 120 µM
Target sequence (P11473 whole entry, looked up): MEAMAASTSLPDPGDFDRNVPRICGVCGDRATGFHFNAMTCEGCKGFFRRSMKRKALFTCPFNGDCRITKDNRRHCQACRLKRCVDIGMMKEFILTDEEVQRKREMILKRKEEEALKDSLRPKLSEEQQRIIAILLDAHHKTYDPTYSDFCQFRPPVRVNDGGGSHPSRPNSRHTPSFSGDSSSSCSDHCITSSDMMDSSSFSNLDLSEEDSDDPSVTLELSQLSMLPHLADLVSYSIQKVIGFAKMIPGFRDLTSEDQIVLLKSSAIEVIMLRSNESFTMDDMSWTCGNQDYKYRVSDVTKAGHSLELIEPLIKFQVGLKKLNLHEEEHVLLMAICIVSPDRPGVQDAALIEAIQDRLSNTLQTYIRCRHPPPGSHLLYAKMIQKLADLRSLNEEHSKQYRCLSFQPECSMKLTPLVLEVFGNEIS
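Fluorescence polarization assay of small-molecule disruption of VDR binding to coregulator peptide SRC2-3. Compounds and controls pin-transferred, then read after 2 h incubation at ambient room temperature.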
* hit, by the source's call; & = joins results of further samples; ! = a repeat was not active; [ ] = another dose, or the depositor's remark. On the % scale 0 is the no-effect control and ±100 the full control effect; potency means the concentration at half of the fitted maximal effect. The list is partial; count on the stated rates, not on these rows.

Results for C=CC[C@H](CC(=O)N[C@H](CO)Cc1ccccc1)C(=O)N[C@H](COC(=O)[C@@H](CC=C)CC(=O)OC(C)(C)C)Cc1c[nH]c2ccccc12 ?
VDR inh: -3.5%

Results for CC(NS(=O)(=O)c1ccc(OCC(=O)N2CCOCC2)c(Cl)c1)c1ccccc1 (configuration not stated) ?
VDR inh: 0.0%

Results for O=C(NC1CCCCCCC1)c1ccccc1-c1ccccc1 ?
VDR inh: -16.7%

What do the screens show for `CCN(C[C@H]1N[C@@](Cc2ccccc2)(C(=O)OC)[C@H]2C(=O)N(Cc3ccccc3)C(=O)[C@@H]12)C(=O)COc1ccccc1`?
VDR inh: -21.7%

Results for CCN1C(=NCCc2cccnc2)N[C@@H](c2ccccc2)C(C(=O)OC)=C1C ?
VDR inh: -7.9%

Results for COC(=O)CCC(=O)Nc1cc(S(=O)(=O)Nc2ccc(Cl)cc2)ccc1N1CCOCC1 ?
VDR inh: -16.8%

What do the screens show for `Cc1cc(C)n(-c2nc(NCC3CCCO3)c3c4c(sc3n2)COC(C)(C)C4)n1` (configuration not stated)?
VDR inh: 11.0%

Results for COc1ccc(OC)c(-c2noc(N3CCN(c4ccc(Cl)cc4)CC3)n2)c1 ?
VDR inh: 15.0%

How did CS(=O)(=O)c1nc(S(=O)(=O)c2ccc(Cl)cc2)c(N2CCOCC2)s1 do in these assays?
VDR inh: -3.9%

What do the screens show for `CCNC(=O)COC(=O)CCC(=O)c1cccs1`?
VDR inh: 4.0%

What do the screens show for `COC(=O)c1ccc(-c2noc(CN3CCCC(CNC(C)=O)C3)n2)cc1` (configuration not stated)?
VDR inh: 0.0%

Results for O=C(COC(=O)c1ccc(F)c(S(=O)(=O)N2CCOCC2)c1)c1ccc(Br)cc1 ?
VDR inh: -15.4%

How did COc1ccc(Br)c(C(=O)NNC(=O)c2ccc(NS(=O)(=O)c3cccs3)cc2)c1 do in these assays?
VDR inh: -0.1%

Results for CC1CCN(CC(=O)Nc2ccccc2C#N)CC1 ?
VDR inh: 4.7%

What do the screens show for `C=CCNC(=S)N1CCN(C2CCCCC2)CC1`?
VDR inh: 5.8%

The final four records of the part before lead into the next:
Results for O=C(COC(=O)c1ccc(F)c(S(=O)(=O)N2CCOCC2)c1)c1ccc(Br)cc1 ?
VDR inh: -15.4%

How did COc1ccc(Br)c(C(=O)NNC(=O)c2ccc(NS(=O)(=O)c3cccs3)cc2)c1 do in these assays?
VDR inh: -0.1%

Results for CC1CCN(CC(=O)Nc2ccccc2C#N)CC1 ?
VDR inh: 4.7%

What do the screens show for `C=CCNC(=S)N1CCN(C2CCCCC2)CC1`?
VDR inh: 5.8%

What do the screens show for `CCc1nc2ccccc2c(=O)n1NC(=O)c1c(O)c2ccccc2n(CC)c1=O`?
VDR inh: -9.9%

What do the screens show for `COc1ccc(OCc2ccc(-c3nc(C#N)c(NCc4ccc(F)cc4)o3)o2)cc1`?
VDR inh: 8.3%

Results for CCCOc1ccc(-c2c(C(=O)N/N=C(\C)c3cccs3)nnn2-c2nonc2N)cc1 ?
VDR inh: -11.2%

Results for O=C(NCCCO)C12CC3CC(CC(C3)C1)C2 ?
VDR inh: 5.3%

What do the screens show for `CC(=C/c1ccco1)/C=N/NC(=O)CSc1nnc(SCc2ccc(C)cc2)s1`?
VDR inh: -7.9%

What do the screens show for `O=C(O)c1ccc(-n2c(/C=C/c3ccccc3)nc3ccccc3c2=O)cc1`?
VDR inh: 30.2%[activator]

How did COc1ccccc1NC(=O)c1ccc(CSc2ccccc2)o1 do in these assays?
VDR inh: -2.0%

How did COC(=O)c1[nH]c2ccccc2c1NS(=O)(=O)c1ccc(OC)cc1OC do in these assays?
VDR inh: 12.0%

What do the screens show for `CC(C(=O)Nc1ccccc1C(F)(F)F)N1CCN(C)CC1` (configuration not stated)?
VDR inh: -12.6%

How did CCN(CC)C(=O)c1ccc(/C=C/c2c[nH]c3ccccc23)[n+](C)c1 do in these assays?
VDR inh: -11.3%

How did Cc1ccc(N(C(=O)c2csnn2)C(C(=O)NC2CCCCC2)c2ccccn2)cc1 (configuration not stated) do in these assays?
VDR inh: 4.5%

What do the screens show for `Cc1cc(NCc2ccco2)nc2cc(O)ccc12`?
VDR inh: -7.3%

Results for COc1ccccc1[C@]1(C)ON(c2ccccc2C(F)(F)F)C1=O ?
VDR inh: -10.5%

How did CCn1ncc(Br)c1C(=O)Nc1ccccc1C(=O)OC do in these assays?
VDR inh: 5.7%

How did O=C(Cc1ccc(S(=O)(=O)N2CCOCC2)s1)OCc1ccc(Cl)cc1 do in these assays?
VDR inh: 30.4%[activator]

How did O=C(COc1ccc(Br)cc1)Nc1cccc2cccnc12 do in these assays?
VDR inh: 12.3%

What do the screens show for `CCCCCCCN(C(=O)CCl)c1ccccc1C`?
VDR inh: -7.5%

What do the screens show for `CCN(CC(=O)N1CCCCCC1)S(=O)(=O)c1ccc(C)cc1`?
VDR inh: -10.5%

How did CCOC(=O)C(=O)Nc1ncc(Cl)s1 do in these assays?
VDR inh: -6.0%

Results for O=C(N/N=C/c1ccc([N+](=O)[O-])o1)C(=O)Nc1ccc(C(=O)O)cc1 ?
VDR inh: 6.3%

How did Cc1ccnc(NCn2nnc3ccccc32)c1 do in these assays?
VDR inh: -19.0%

Results for O=C(Nc1nnc(CC2=CCCCC2)s1)c1cccs1 ?
VDR inh: 7.1%

What do the screens show for `O=C(Nc1cccc(F)c1)N1CC[C@@]2(CCCN(C(=O)c3cnccn3)C2)C1`?
VDR inh: 5.7%

Results for CCC(NC(C)C)C(O)c1ccc(O)c(O)c1 (configuration not stated) ?
VDR inh: 50.1µM*!

What do the screens show for `Cc1ccc2nc(C)c3c(c2c1)OC(C(C)(Cl)Br)C3` (configuration not stated)?
VDR inh: 21.6%

How did CSCc1ccc(C(=O)NCCSc2ccc(Br)cc2)cc1 do in these assays?
VDR inh: -11.4%

How did CC(=O)Nc1cccc(NC(=O)c2csc(C)c2)c1 do in these assays?
VDR inh: 0.8%

How did CCc1ccc(-c2nc(CS(=O)CC(=O)NCCN3CCCCCC3)c(C)o2)cc1 (configuration not stated) do in these assays?
VDR inh: -6.7%

Results for Cn1c(Cn2nnc3ccccc32)nnc1SCC(=O)Nc1nccs1 ?
VDR inh: -8.7%

What do the screens show for `Cc1cccnc1NC(=O)c1ccc(Cl)c(S(=O)(=O)N2CCCCCC2)c1`?
VDR inh: 17.9%

How did O=C(COc1nsnc1N1CCOCC1)Nc1ccccc1Cl do in these assays?
VDR inh: 1.6%

How did Cc1cc(OCCNCCO)cc(C)c1Cl do in these assays?
VDR inh: 1.7%

How did CCC(C)Sc1ccc(-c2nc3cnccn3c2NC2CCCCC2)cc1 (configuration not stated) do in these assays?
VDR inh: -11.6%

How did CCOc1ccc(-n2nc3c(SCCN4CCCC4)nnc(C)c3c2C)cc1 do in these assays?
VDR inh: -12.3%

Results for CCC(C)c1ccc(NC(=O)c2cccnc2)cc1 (configuration not stated) ?
VDR inh: 3.9%

What do the screens show for `O=C(COC(=O)CCc1ccc(S(=O)(=O)N2CCOCC2)cc1)Nc1ncc(C(F)(F)F)cc1Cl`?
VDR inh: 3.5%

Results for CC(C(=O)N1CCCc2c1c(=O)oc1ccc(O)cc21)N1CCc2ccccc2C1 (configuration not stated) ?
VDR inh: 11.4%

How did CSc1ncc(-c2ccccc2)cn1 do in these assays?
VDR inh: -5.0%

Results for COc1ccc(S(=O)(=O)N2CCC(c3nnc(-c4ccccc4C)o3)CC2)c(OC)c1 ?
VDR inh: -6.9%

How did Cn1cccc1-c1cc(C(=O)N/N=C/c2ccc(Cl)cc2)[nH]n1 do in these assays?
VDR inh: 0.0%

Results for COc1ccc(-c2noc(N3CCC(C(=O)N4CCN(c5cccc(OC)c5)CC4)CC3)n2)cc1 ?
VDR inh: 8.3%

How did O=C1CCOc2cc(OCc3ccccc3)ccc21 do in these assays?
VDR inh: 8.3%

What do the screens show for `CC(C)(C)C1CCC(C(=O)OCC(=O)Nc2ccc3[nH]c(=O)[nH]c3c2)CC1` (configuration not stated)?
VDR inh: 4.6%

How did COc1ccccc1NC(=O)Nc1ccc(Cl)c(S(=O)(=O)Nc2ccccc2OC)c1 do in these assays?
VDR inh: -3.9%

What do the screens show for `Cc1cccc2sc(N(CCCN3CCOCC3)C(=O)CS(=O)(=O)c3ccc(F)cc3)nc12`?
VDR inh: 10.0%

Two consecutive records from above:
How did COc1ccccc1NC(=O)Nc1ccc(Cl)c(S(=O)(=O)Nc2ccccc2OC)c1 do in these assays?
VDR inh: -3.9%

What do the screens show for `Cc1cccc2sc(N(CCCN3CCOCC3)C(=O)CS(=O)(=O)c3ccc(F)cc3)nc12`?
VDR inh: 10.0%

The listing continues:
What do the screens show for `COc1ccc(NC(=O)C(CC(C)C)NC(=O)C2CCCCC2)c(OC)c1` (configuration not stated)?
VDR inh: 0.7%&-6.1%

What do the screens show for `CCOC(=O)N1CCN(C(=O)C2CCCN(S(=O)(=O)c3ccc(C)cc3)C2)CC1` (configuration not stated)?
VDR inh: -5.3%

Results for COc1ccc(S(=O)(=O)N2CCN(C(=O)COc3ccc(C)c(C)c3)CC2)cc1OC ?
VDR inh: -15.6%

How did O=C(NCCSc1ncc(-c2ccccc2)[nH]1)c1ccco1 do in these assays?
VDR inh: -18.3%

Results for CC1=NN(c2ccccc2)C(=O)C1(C)[N+](=O)[O-] (configuration not stated) ?
VDR inh: 8.6%

How did Cc1ccc(NC(=O)N2C(=O)C3(OCCO3)c3ccccc32)cc1 do in these assays?
VDR inh: 26.9%

Results for CCN(CC)CCn1c(=N)n(CCOc2ccccc2Cl)c2ccccc21 ?
VDR inh: -8.9%

How did CN(C)c1ccc(C=NCC2COc3ccccc3O2)cc1 (configuration not stated) do in these assays?
VDR inh: 16.8%

How did COc1ccc(CNc2cccc3[nH]c(C(F)(F)F)nc23)cc1OC do in these assays?
VDR inh: 0.4%

What do the screens show for `Cc1ccc(CSc2nc3ccc(NC(=O)COc4ccccc4)cc3s2)cc1`?
VDR inh: 4.8%

How did O=S(=O)(c1ccc(Br)cc1)c1nc(-c2ccccc2)oc1N1CCOCC1 do in these assays?
VDR inh: -19.3%

What do the screens show for `NC(=O)c1cc([N+](=O)[O-])ccc1NCc1ccc(F)cc1`?
VDR inh: -9.9%

What do the screens show for `Cc1ccc(CN2c3ccccc3-c3nc(SCC(=O)NCc4ccccc4)ncc3S2(=O)=O)cc1`?
VDR inh: 3.2%

How did Cc1cccc(C2CC(=O)Nc3cc4c(cc32)OCO4)c1 (configuration not stated) do in these assays?
VDR inh: -11.8%

What do the screens show for `N=c1c(S(=O)(=O)c2ccc(Br)cc2)cc2c(=O)n3ccccc3nc2n1CCN1CCOCC1`?
VDR inh: 3.8%

Reprinted from the part before: three entries, then new ones.
What do the screens show for `Cc1ccc(CN2c3ccccc3-c3nc(SCC(=O)NCc4ccccc4)ncc3S2(=O)=O)cc1`?
VDR inh: 3.2%

How did Cc1cccc(C2CC(=O)Nc3cc4c(cc32)OCO4)c1 (configuration not stated) do in these assays?
VDR inh: -11.8%

What do the screens show for `N=c1c(S(=O)(=O)c2ccc(Br)cc2)cc2c(=O)n3ccccc3nc2n1CCN1CCOCC1`?
VDR inh: 3.8%

How did COC(=O)c1ccccc1NC(=O)c1ccc2c(=O)n3c(nc2c1)CCCCC3 do in these assays?
VDR inh: 6.4%

What do the screens show for `Cc1ccc(C(=O)Nc2ccccc2C(=O)NC(Cc2ccccc2)C(=O)O)cc1` (configuration not stated)?
VDR inh: 6.5%

How did O=C(O)CCCC(=O)NCCc1cccc(Cl)c1 do in these assays?
VDR inh: 16.6%

How did CCOc1ccc(N(C)C(=O)C2CCN(S(=O)(=O)c3c(C)noc3/C=C/c3ccc(C)cc3)CC2)cc1 do in these assays?
VDR inh: 11.0%

Results for S=C1SCCN1Cc1ccccc1 ?
VDR inh: 8.6%

How did COc1ccc([N+](=O)[O-])cc1N1C(=O)c2cccnc2C1=O do in these assays?
VDR inh: -21.9%

Results for CCc1ccc(C2C(C(=O)Nc3ccccc3)=C(C)Nc3c(C(=O)Nc4ccc(C)cc4)cnn32)cc1 (configuration not stated) ?
VDR inh: -0.6%

Results for COc1ccc(CNC(=O)CN2C(=O)COc3ccccc32)c(OC)c1 ?
VDR inh: 4.1%

What do the screens show for `COCC(=O)Nc1nnc(-c2ccc(C(C)(C)C)cc2)s1`?
VDR inh: 18.8%

Results for CCCCCCCCCC(=O)N[C@@H]1c2cc(OC)c(OC)cc2C[C@H]1O ?
VDR inh: -1.4%

Results for Cn1nc(CC(=O)NCc2ccc(C(F)(F)F)cc2)c2ccccc2c1=O ?
VDR inh: -1.4%

How did O=C(/C=C/c1ccccc1)Nc1nnc(SCC(=O)c2ccc3ccccc3c2)s1 do in these assays?
VDR inh: -10.2%

How did CCC(=O)N(C(=O)CC)N1CCN(c2ccncc2S(=O)(=O)N2CCCCC2)CC1 do in these assays?
VDR inh: -6.5%

How did Cc1cc(SCC(=O)Nc2ccc(F)cc2F)nc(=O)[nH]1 do in these assays?
VDR inh: -1.0%

What do the screens show for `COc1ccccc1CN1CCCC(C(=O)N2CCCCC2)C1` (configuration not stated)?
VDR inh: 15.0%

Results for CCOC(=O)C1[C@H]2C(=O)N(C(C)c3ccc(OC)cc3)C[C@]23C=C[C@H]1O3 (some centres not stated) ?
VDR inh: -10.6%

How did COc1ccc(CCNC(=O)C(=O)Nc2ccc3nc4n(c(=O)c3c2)CCCCC4)cc1OC do in these assays?
VDR inh: -10.3%

Results for N#CC/C(N)=N/Nc1nc2ccccc2nc1Cc1ccccc1 ?
VDR inh: 10.2%

What do the screens show for `O=C(CSc1nnnn1-c1ccc(F)cc1F)Nc1ccccc1F`?
VDR inh: -9.1%

Results for CCCO/N=C1/C(=O)N(c2ccccc2)c2ccccc21 ?
VDR inh: -3.5%

How did CCOC(=O)c1[nH]c(COC(=O)CCCOc2ccccc2)c(C(=O)OCC)c1C do in these assays?
VDR inh: 2.5%

Results for CCOc1ccc(CCNC(=O)CSC(=S)N2CCCC2)cc1OCC ?
VDR inh: inconclusive

How did CCn1nccc1C(=O)Nc1ccc(S(=O)(=O)NC23CC4CC(CC(C4)C2)C3)cc1 do in these assays?
VDR inh: 4.3%

Screening data from PubChem BioAssay.
